Compound activity deposited in PubChem BioAssay by National Center for Advancing Translational Sciences (NCATS).
StopGo RLuc = FMDV 2A StopGo reporter, Renilla signal. HEK cells with a luciferase reporter of 2A StopGo recoding. Potency, µM (series often up to 57.5 µM), for inactives: at the highest dose signal change, negative = less light. 0.32% of 120,000 active; active means well fitted falling curve with a large enough effect; inconclusive means small, poorly fitted or top-dose-only effect; inactive means no such curve, though single readings can be large or run the other way; further: nearly all actives have a fitted effect of over 55% in size; overnight with compound
2A firefly = lowers the firefly signal of an FMDV 2A StopGo reporter. Potency, µM (doses to about 57.5 µM), inactives show at the top dose signal change, negative = less light. AID 1745856. HEK cells with a luciferase reporter of 2A StopGo recoding. 0.23% of 120,000 active; active = well fitted falling curve with a large enough effect; inconclusive = small, poorly fitted or top-dose-only effect; inactive = no such curve, though single readings can be large or run the other way; further: nearly all actives have a fitted effect of over 60% in size; overnight with compound
* = called active by the depositor; ? = inconclusive; [ ] = another dose, or the depositor's remark. On the % scale 0 is the no-effect control and ±100 the full control effect; potency means the concentration at half of the fitted maximal effect.

1	COc1cc(/C=C2/NC(=O)NC2=O)cc(I)c1OCC(=O)O
2	CN(C)C(=S)SCCCCC#N
3	Cc1cc(C(C)(C)C)ccc1OC(=O)c1ccc(CS(C)(=O)=O)cc1
4	Cc1nn(-c2ccccc2)c(OC(=O)C(C)(C)C)c1Sc1ccccc1
5	C=CCOc1ccc(NC(=O)C(C)Oc2ccccc2)cc1 (stereo not given)
6	Cc1cccc(N2CCN(C(=O)CN3C(=O)COc4ccc(S(=O)(=O)N5CCC(C)CC5)cc43)CC2)c1C
7	COc1cc(NC(=O)COc2cc(C)cc3oc(=O)cc(C)c23)cc(OC)c1
8	COc1cc(C(C)=O)ccc1OCc1ccc(F)cc1Cl

entry no.,1,2,3,4,5,6,7,8
StopGo RLuc,-8.2%,11.4%,-8.7%,-4.5%,6.3%,-14.1%,-15.0%,30.9%[activator]
2A firefly,-6.0%,9.7%,-14.9%,-9.7%,32.7%[activator],-13.6%,-18.5%,141.2%[activator]

9	Cc1oc(-c2ccccc2)nc1CC(=O)Nc1ccc(OCC(F)(F)F)cc1
10	O=C(c1sccc1-c1ccccc1)N1CCN(S(=O)(=O)c2ccc(F)cc2F)CC1
11	CCOc1ccccc1N(CC)C(=O)c1cc2c(=O)n(CC)c3ccccc3c2s1
12	COc1ccc(NC(=O)C2=CC(c3ccco3)=NS(=O)(=O)N2C)cc1
13	Nc1nc(CNC(c2ccccc2)c2ccccc2)nc(Nc2ccccc2)n1
14	Cc1nc(-n2nc(C)c(Cl)c2C)sc1C(=O)N1CCCCC1
15	CCc1cccc(NC(=O)CSc2nccn2C)c1
16	O=S(=O)(NCCc1coc(-c2ccccc2)n1)c1ccccc1

entry no.,9,10,11,12,13,14,15,16
StopGo RLuc,-2.4%,-2.0%,26.3%,1.2%,2.1%,4.1%,13.7%,39.2%[activator]
2A firefly,35.2%[activator],-4.3%,-10.5%,100.6%[activator],5.5%,5.6%,256.8%[activator],-0.2%

17	C[C@H](O)[C@@H]1CN2CCc3c([nH]c4c(-c5ccc6c(c5)OCO6)cccc34)[C@@H]2C[C@@H]1N(C)C(=O)Nc1ccccc1
18	Cc1ccc(OCC(=O)Nc2cccc3cccnc23)cc1C
19	O=S(=O)(c1cccc(F)c1)N1CCC(N2CCOCC2)CC1
20	CCOc1ccc(OCC)c(NC(=O)c2nc3ccccc3nc2N2CCCCC2)c1
21	COC(=O)c1ccc(NC(=O)CN(Cc2ccccc2)S(=O)(=O)c2ccc(C)cc2)cc1
22	C(#Cc1ccccc1)C[N+]1(CC#Cc2ccc(C#CC[N+]3(CC#Cc4ccccc4)CCOCC3)cc2)CCOCC1
23	O=C(/C=C/c1ccccc1)OCc1ccccc1
24	NC(=O)c1cn(CC(=O)NCCc2cccc3ccccc23)c2ccccc12

entry no.,17,18,19,20,21,22,23,24
StopGo RLuc,-4.7%,9.6%,-4.7%,-8.7%,62.4%[activator],-12.8%,-1.7%,?
2A firefly,2.4%,0.0%,-1.0%,-5.9%,-7.5%,-7.8%,-6.0%[11.5 µM],?

Compound profiles, as listed above. Screens in order: StopGo RLuc | 2A firefly
C[C@H](O)[C@@H]1CN2CCc3c([nH]c4c(-c5ccc6c(c5)OCO6)cccc34)[C@@H]2C[C@@H]1N(C)C(=O)Nc1ccccc1 reads -4.7% | 2.4%
O=S(=O)(c1cccc(F)c1)N1CCC(N2CCOCC2)CC1 reads -4.7% | -1.0%
COC(=O)c1ccc(NC(=O)CN(Cc2ccccc2)S(=O)(=O)c2ccc(C)cc2)cc1 reads 62.4%[activator] | -7.5%
NC(=O)c1cn(CC(=O)NCCc2cccc3ccccc23)c2ccccc12 reads ? | ?
O=C(/C=C/c1ccccc1)OCc1ccccc1 reads -1.7% | -6.0%[11.5 µM]

Continued:
25	COC(=O)c1ccc(COC(=O)CC23CC4CC(CC(O)(C4)C2)C3)cc1
26	COc1ccc(C)cc1NC(=O)c1ccc2c(c1)nnn2C1CCCC1
27	COc1ccc(C(=O)/C=C/c2cccc(F)c2)cc1CSCC(=O)O
28	CC1=C(c2ccc(Cl)cc2)[N+](=O)C(C)(c2ccccc2)N1[O-] (stereo not given)
29	CCn1ccc2cc(S(=O)(=O)N3CCC(C(=O)NCCOC)CC3)ccc21
30	COc1ccc2c(CNC3CCC(C)CC3)c(C(=O)O)n(Cc3ccccc3)c2c1 (stereo not given)
31	Cc1nn2c(C)c(C(=O)NCC(C)c3ccccc3)cnc2c1-c1ccccc1 (stereo not given)
32	O=C(c1ccccc1)N1CC=C(c2c[nH]c3ccccc23)CC1

entry no.,25,26,27,28,29,30,31,32
StopGo RLuc,-13.2%[1.06 µM],-12.5%,-10.5%,9.7%,-7.0%,0.0%,-12.0%,-6.6%
2A firefly,66.3%[activator],-5.8%,-1.7%,9.7%,-13.0%,-17.6%,-19.8%,22.5%

33	CC(CC(=O)O)NC(=O)OCc1ccccc1 (stereo not given)
34	O=C(Nc1cccc2cccnc12)c1cccc(Cl)c1
35	CCN(CC)C(=O)CN(C)S(=O)(=O)c1cccc2cc(C)cnc12
36	CC[C@H](C)NC(=O)CCCc1nnc2n(CCC(C)C)c(=O)c3sccc3n12
37	CC(=O)Nc1ccc(NS(=O)(=O)c2c(C(=O)N3CCCCCC3)c(C)n(C)c2C)cc1
38	CN(c1ccc(OCC(=O)N2CCCCC2)cc1)S(=O)(=O)c1cccs1
39	COc1ccc(CNC(=O)CCc2c(C)nn(-c3ccc(N4CCCCC4)nn3)c2C)c(OC)c1
40	O=C(COc1cccc(Br)c1)Nc1ccc(NC(=O)C2CC2)cc1C(F)(F)F

entry no.,33,34,35,36,37,38,39,40
StopGo RLuc,6.2%,45.0%[activator],37.9%[activator],-6.1%,22.4%,78.6%[activator],11.7%,?
2A firefly,4.2%,122.3%[activator],10.0%,-5.4%,-17.7%,0.0%,37.2%[activator],?

41	CCOc1ccc(NC(=O)c2cc(S(=O)(=O)N3CCc4ccccc43)ccc2F)cc1
42	Cc1ccc(N(CC(=O)N2CCC(C(N)=O)CC2)S(=O)(=O)c2ccc(Cl)cc2)cc1C
43	CCN(CC)CCNCc1ccc(-c2ccccc2)o1
44	CCc1cccc(NC(=O)C2CCN(C(=O)c3cnn(-c4ccccc4)c3-n3cccc3)CC2)c1
45	CCCC1(CCC)NC(=O)N(Cc2ncc(-c3ccccc3)o2)C1=O
46	Nc1nn(Cc2ccc(Br)cc2)cc1Br
47	COc1ccc(CNC(=O)c2ccc(CNC(=O)OC(C)(C)C)cc2)cc1
48	O=C(NCCC1=CCCCC1)c1ccc2c(c1)N(Cc1ccccc1F)C(=O)c1ccccc1S2=O (stereo not given)

entry no.,41,42,43,44,45,46,47,48
StopGo RLuc,-5.4%,182.2%[activator],-11.2%,-26.9%,24.4%,-12.1%,-13.6%,8.1%
2A firefly,?,-9.0%,-11.7%,?,12.7%,7.4%,1.4%,-3.1%

49	CCOC(=O)c1ccccc1NC(=O)Cn1ccn2nc(-c3ccc(Cl)cc3)cc2c1=O
50	CCN(CC)CCNC(=O)c1ccsc1
51	CC(C)N(C)S(=O)(=O)c1ccc(Cl)c(C(=O)Nc2nnc(C3CCCCC3)s2)c1
52	Cc1cc(CS(=O)(=O)CC(=O)NC2CC2)on1
53	Cc1ccc(-n2nc(C(=O)N3CCCCC3C)c(=O)n(C)c2=O)cc1 (stereo not given)
54	CC1CCN(S(=O)(=O)c2ccc3c(ccn3CC(=O)NCc3ccc(N(C)C)cc3)c2)CC1
55	COc1cc2c(cc1OC)-c1c(c(C(=O)N3CCCC3)nn1-c1ccccc1Cl)C2
56	CN(C)c1ccc(Nc2nc(-c3cc4ccccc4oc3=O)cs2)cc1

entry no.,49,50,51,52,53,54,55,56
StopGo RLuc,-3.7%,-0.5%,-21.3%,-7.1%,-6.0%,29.2%,78.1%[activator],1.7%
2A firefly,-7.8%,-11.9%,-2.1%,-2.9%,-0.7%,4.6%,69.6%[activator],104.6%[activator]

57	COc1ccc(-c2nc3ccc(C(=O)NCc4ccc(C)cc4)cc3nc2-c2ccc(OC)cc2)cc1
58	CC(C#N)(NC(=O)CSc1ccc(O)cc1)C1CC1 (stereo not given)
59	Cc1ccc(Cn2c(NCCc3ccc(F)cc3)nc3c2c(=O)n(C)c(=O)n3C)cc1
60	CCCC(=O)Nc1ccc(C(=O)NCc2cccnc2)cc1
61	CN(C(=O)C(c1ccccc1)c1ccccc1)c1nc2ccccc2o1
62	CCOC(=O)C(C)Sc1nc(-c2ccccc2)ccc1C#N (stereo not given)
63	O=C(Nc1nnc2n1CCS2)c1cc(C(F)(F)F)cc(C(F)(F)F)c1
64	Cc1c(NC(=O)c2ccc(OC(C)C)cc2)cccc1-c1nc2ncccc2o1

entry no.,57,58,59,60,61,62,63,64
StopGo RLuc,17.3%,-1.7%,-8.1%,-6.9%,12.4%,8.3%,0.2%,43.6%[activator]
2A firefly,-8.8%,3.5%,5.7%,14.1%,0.0%,110.2%[activator],-0.2%,28.0%

65	CCOc1ccc(CCNC(=O)CCc2cn(Cc3ccccc3F)c3ccccc23)cc1OCC
66	O=C(NC1CC1)C(Sc1ccc(Cl)cc1)c1ccccc1 (stereo not given)
67	CC(C)(C)C(=O)CN1C(=O)N(c2ccc(Cl)cc2)S(=O)(=O)c2ccccc21
68	CCNC(=S)Nc1c(F)cccc1F
69	CCc1ccccc1N(C)C(=O)c1cc2c(Cl)nc3ccc(C)cc3c2s1
70	CC(C)CC(=O)Nc1nnc(S(=O)(=O)N2CCc3ccccc32)s1
71	CCOC(=O)c1cc(-c2ccc(S(=O)(=O)Nc3ccccc3CC)s2)on1
72	Cc1nn(-c2ccccc2)c2c1N(CCCC(=O)NCc1ccc(Cl)cc1)C(=O)CS2

entry no.,65,66,67,68,69,70,71,72
StopGo RLuc,-16.5%,0.0%,88.8%[activator],-3.2%,5.3%,2.2%,0.2%,4.4%
2A firefly,-22.9%,44.4%[activator],2.9%,-2.2%,3.7%,-13.8%,4.0%,17.4%

Quoted at random: 4 entries already listed.
71	CCOC(=O)c1cc(-c2ccc(S(=O)(=O)Nc3ccccc3CC)s2)on1
66	O=C(NC1CC1)C(Sc1ccc(Cl)cc1)c1ccccc1 (stereo not given)
70	CC(C)CC(=O)Nc1nnc(S(=O)(=O)N2CCc3ccccc32)s1
67	CC(C)(C)C(=O)CN1C(=O)N(c2ccc(Cl)cc2)S(=O)(=O)c2ccccc21

entry no.,71,66,70,67
StopGo RLuc,0.2%,0.0%,2.2%,88.8%[activator]
2A firefly,4.0%,44.4%[activator],-13.8%,2.9%

Other structures.
73	O=C(CSc1ccc2c(c1)OCCCO2)Nc1ccc2ccccc2c1
74	CC(C)N(Cc1ccc(C(N)=O)cc1)C1CC1
75	O=C(CCc1nc2ccccc2oc1=O)OCc1cccc(C(F)(F)F)c1
76	O=C(O)c1ccc(I)c(Br)c1
77	COc1ccc(Nc2nc3cc(C)ccc3nc2NS(=O)(=O)c2ccc(C)cc2)cc1
78	COc1cc(C(=O)Nc2ccc(OCc3cc(=O)n4ccc(C)cc4n3)cc2)cc(OC)c1OC
79	O=C(Nc1ccccc1OCc1cc(=O)n2ccccc2n1)Nc1ccccc1C(F)(F)F
80	Cc1ccc(-n2nc(C)c3c(C(=O)NCc4ccc(F)cc4)cc(C)nc32)cc1

entry no.,73,74,75,76,77,78,79,80
StopGo RLuc,-14.1%,-3.6%,-14.5%[1.06 µM],20.2%,15.9%,-12.5%,6.6%,-0.2%
2A firefly,23.2%,-3.4%,10.1%,0.0%,189.8%[activator],-14.5%,22.8%,-11.5%

81	Fc1ccc(NN=C2c3ccccc3-c3ccccc32)cc1
82	CCCCCC1=CCC/C1=N\NC(=O)c1cccnc1
83	COCCCNC(=O)c1cc(-c2ccc(OC)cc2)nc2n[nH]c(-c3ccc(Cl)cc3)c12
84	CCn1c(C)c(C)c2cc(C(=O)NCc3ccc(N(C)C)cc3)ccc21
85	Cc1cccc(-n2ncc(C(=O)NCc3ccco3)c2C2CCN(C(=O)OC(C)(C)C)CC2)c1
86	CCCN1C(=O)C(Cc2nc3ccccc3c(=O)n2-c2cccc(C)c2)c2ccccc21 (stereo not given)
87	CC(=O)Nc1nnc(Cc2c[nH]c3ccccc23)s1
88	Cc1ccccc1N1C(=O)c2cc(-c3ccco3)nn2CC1(C)C(=O)NC1CCCCC1 (stereo not given)
89	CCc1nc2c(sc3cccc(F)c32)c(=O)n1CC(=O)Nc1ccc(C(C)=O)cc1
90	CC(C)c1cc(=O)oc2cc(OCC(=O)N3CCCCC3)ccc12

entry no.,81,82,83,84,85,86,87,88,89,90
StopGo RLuc,-0.5%,6.2%,-15.2%,14.7%,31.1%[activator],64.7%[activator],-12.4%,9.8%,-7.0%,-7.5%
2A firefly,53.7%[activator],33.0%[activator],-10.6%,1.1%,-20.1%,-4.0%,26.6%,-16.3%,-6.8%,6.2%

A portion of the library. The share of hits here may be higher or lower than overall.
